Compound activity deposited in PubChem by National Center for Advancing Translational Sciences (NCATS).
gsp antag – qHTS for Antagonists of gsp, the Etiologic Mutation Responsible for Fibrous Dysplasia/McCune-Albright Syndrome: qHTS. gsp-mutant cells, cAMP HTRF, 30 min; control for the full effect not named in the record. Potency, µM (titrated, usually from 76.9 µM), for the others: at the highest dose activity change, negative = inhibition, hits mostly inhibitors. hit rate 0.4% among 340,000. AID 624288, 2012; active = falling curve of any shape with a large fitted effect; inconclusive = falling curve, mostly with a smaller effect; inactive = flat or rising curve; cell line not stated here;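 also: intracellular cAMP measured with PDE inhibitor Ro 20-1724 present during compound exposure; potency is read from the fitted curve at half-maximal effect; % is scaled to controls: 0 for no effect and ±100 for the full control effect; nearly all actives have a fitted effect of over 65% in size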
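Cells, 2000/well, grown 16–24 h in DMEM 10% FBS with 0.5 mg/ml G418, then compounds plus […] (300 uM addition stock), 30 min at 37C. cAMP read by HTRF (cAMP-d2 and anti-cAMP antibody-K in lysis buffer) after 30 min RT.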
Six1-Eya2 inh – qHTS Assay for Inhibitors of the Six1/Eya2 Interaction; Homeobox protein SIX1 (Homo sapiens) + Protein phosphatase EYA2 (Homo sapiens), …; AlphaScreen GST-Six1/His-Eya2 binding, biochemical; active compounds read low; control for the full effect not named in the record; activity change, % (concentration not given with the values); hit rate 0.56% among 360,000; AID 651725, 2012; in the data active = activity change below about -65%; inconclusive = about -30% to -65%; inactive = above about -30%; also: % is scaled to controls: 0 for no effect and ±100 for the full control effect
Target sequence (O00167 whole entry, looked up): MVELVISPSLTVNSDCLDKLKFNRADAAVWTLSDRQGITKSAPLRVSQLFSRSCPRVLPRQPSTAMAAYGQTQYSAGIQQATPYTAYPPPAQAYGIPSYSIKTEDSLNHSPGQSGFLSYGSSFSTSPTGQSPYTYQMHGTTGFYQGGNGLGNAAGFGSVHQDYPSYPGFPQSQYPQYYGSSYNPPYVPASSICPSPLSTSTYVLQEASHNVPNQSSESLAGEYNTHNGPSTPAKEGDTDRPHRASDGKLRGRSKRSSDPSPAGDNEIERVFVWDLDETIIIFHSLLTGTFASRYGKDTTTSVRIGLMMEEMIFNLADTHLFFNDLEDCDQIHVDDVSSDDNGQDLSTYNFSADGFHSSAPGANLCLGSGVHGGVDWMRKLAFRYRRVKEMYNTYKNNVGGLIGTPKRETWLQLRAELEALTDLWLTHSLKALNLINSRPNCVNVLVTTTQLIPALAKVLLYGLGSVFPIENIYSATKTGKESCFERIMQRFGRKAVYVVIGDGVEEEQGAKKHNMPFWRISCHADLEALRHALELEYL
Target sequence (Q15475 whole entry, looked up): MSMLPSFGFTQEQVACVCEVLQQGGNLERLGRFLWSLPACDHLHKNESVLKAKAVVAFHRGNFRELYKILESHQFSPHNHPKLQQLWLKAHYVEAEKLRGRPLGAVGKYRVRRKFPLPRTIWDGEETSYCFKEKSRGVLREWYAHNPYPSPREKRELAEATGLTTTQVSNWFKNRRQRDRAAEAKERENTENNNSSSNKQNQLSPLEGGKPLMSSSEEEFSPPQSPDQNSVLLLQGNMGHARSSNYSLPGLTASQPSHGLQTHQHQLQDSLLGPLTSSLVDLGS
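GST-Six1 + His-Eya2 (5X stock: 250/500 nM); Tris pH 8.0, 300 mM NaCl, 0.05% BSA, 0.02% Tween 20; GSH donor/Ni acceptor beads; 1 h 37 °C dark; AlphaScreen readout.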
gsp ag – qHTS for Agonist of gsp, the Etiologic Mutation Responsible for Fibrous Dysplasia/McCune-Albright Syndrome: qHTS | gsp mutant cells, cAMP HTRF, 30 min; control for the full effect not named in the record | Potency, µM (top dose mostly 76.9 µM), for inactives: at the highest dose activation (cAMP increase), usual class: activators | hit rate 0.13% among 340,000; active = well fitted activation curve with a large enough effect; inconclusive = small, poorly fitted or top-dose-only effect, or another doubt; inactive = no such curve, though single readings can be large or run the other way; cell line not stated here;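 also: phosphodiesterase inhibitor Ro 20-1724 added with compounds to block cAMP breakdown; potency is read from the fitted curve at half-maximal effect; nearly all actives have a fitted effect of over 60% in size; about a fifth of the inactives were tested at one dose only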
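Cells in DMEM/10% FBS with G418 were pretreated with compounds in DMSO plus […] (300 uM stock) for 30 min at 37C. cAMP was measured by HTRF (cAMP-d2 plus anti-cAMP antibody-K) after 30 min at room temperature.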
D2 agonist – Beta-Arrestin HTS for Positive Allosteric Modulators of the Human D2 Dopamine Receptor: Agonists. activation, % (no concentration beside the values). D(2) dopamine receptor (Homo sapiens), P14416. DiscoveRx PathHunter D2 beta-arrestin, luminescence, 90 min; 100% = 57 uM dopamine signal. hit rate 0.084% among 360,000; in the data active = activation above about 40%; inconclusive = about 15% to 40%; inactive = below about 15%; also: compound concentration not given in the record; the text of the record calls up to 30% inactive
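Agonist mode: compounds alone added to overnight-plated D2 PathHunter cells for 90 min at 37 C, with 57 uM final dopamine (EC100) defining full response. Beta-arrestin recruitment detected by chemiluminescent reagent, read after 1 h at ambient temperature.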
D2 potentiator – Beta-Arrestin HTS for Positive Allosteric Modulators of the Human D2 Dopamine Receptor: Potentiators; potentiation, % (test concentration not listed); DiscoveRx D2 beta-arrestin cells, luminescence, 90 min; 100% = 57 uM dopamine signal; AID 624464, 2012; D(2) dopamine receptor (Homo sapiens), P14416; hit rate 0.23% among 360,000; active = potentiation of 50% or more; inconclusive = 30% to 50%; inactive = 30% or less;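 also: compound concentration not given in the record; tested on top of an EC20 dose of dopamine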
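PathHunter D2 cells, attached overnight at 37 deg C, received compound in DMSO plus dopamine at EC20 (50 nM final) for 90 min at 37 deg C. Beta-arrestin recruitment was read as luminescence after 1 h with detection reagent at ambient temperature.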
CtBP-E1A blk – qHTS Assay for Inhibitors of the CtBP/E1A Interaction | CtBP / adenovirus E1A interaction (AlphaScreen) | AlphaScreen GST-E1A/His-CtBP binding, 1536-well; active compounds read low; control for the full effect not named in the record | activity change, % (no concentration beside the values) | hit rate 0.49% among 340,000 | AID 651724, 2012; in the data active means activity change below about -65%; inconclusive means about -30% to -65%; inactive means above about -30%; also: % is scaled to controls: 0 for no effect and ±100 for the full control effect
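Steps: dispense buffer (Tris pH 8.0, NaCl 300 mM, TCEP 1 mM, BSA, Tween 20); add 5X protein mix (GST-E1A, His-CtBP, 125 nM each); pin 23 nL compound; 2 h at 37 °C, dark; add 5X beads (50 ug/mL); 1 h; read.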
Numbers without * were called inactive; ? = inconclusive; · = no result given; [ ] = remark or other dose. Not all compounds are listed. The share of hits here may be higher or lower than overall.

SMILES | gsp antag | Six1-Eya2 inh | gsp ag | D2 agonist | D2 potentiator | CtBP-E1A blk
COc1cccc(N2C(=O)NC(=O)/C(=C/c3ccc4c(c3)Cc3ccccc3-4)C2=O)c1 | 4.1% | 8.2 | -49.8%[15.4 µM] | -7.0 | -7.6 | 0.0
CN1C(=O)NC(=O)C2(Cc3ccccc3N3CCOCC32)C1=O (centres undefined) | 5.7% | 5.1 | ? | -1.5 | -1.1 | 0.0
CC1(C)CN=C(NCc2ccccc2Cl)S1 | 9.7% | -2.3 | -50.2%[inhibitor] | -1.4 | -13.0 | -13.4
O=C1CN=C(c2ccccc2)c2c(sc3c2CCCC3)N1 | -3.0% | -1.5 | · | -6.1 | -9.2 | 1.4
C[N+](C)(C)CCc1ccc(O)cc1 | -6.7% | 4.6 | · | -3.0 | -25.5 | -22.7
CC12CN3CC(c4ccccc4)(CN(C1)C31CCCCC1)C2=O | 7.5% | 3.8 | -2.0% | -3.1 | -0.4 | 1.2
CC1([N+](=O)[O-])COP(=O)(NC2CCCC2)OC1 (centres undefined) | 12.9% | -1.4 | ? | -1.5 | -12.0 | -0.3
Cc1cccc(NC(=O)C(C)N2CC=C(c3ccccc3)CC2)c1 (centres undefined) | -2.1% | -11.0 | -1.4%[15.4 µM] | -1.6 | -16.6 | 10.8
CN(c1ccccc1)c1ccc([N+](=O)[O-])c2nonc12 | 0.3% | -23.5 | 0.2%[15.4 µM] | -6.0 | -0.9 | -2.6
Cc1cc(/C=C2\C(=O)NC(=O)N(Cc3ccco3)C2=O)c(C)n1-c1ccc(O)cc1 | ? | ? | -4.6% | 3.0 | 1.3 | 5.5
O=C(CN1CCOCC1)c1cccc2ccccc12 | -6.4% | -0.9 | 29.1% | -2.4 | 5.8 | 3.3
C/C=C1/C[C@@H](C)[C@](O)(CO)C(=O)OCC2=CCN3CC[C@@H](OC1=O)[C@@H]23 | 7.7% | -2.9 | · | 1.5 | -4.7 | 5.4
Oc1c(Br)cc(Br)cc1Br | -5.7% | 0.5 | · | 2.6 | 0.9 | 4.5
Cc1cc(N(CCCl)CCCl)ccc1/C=N/N=C(\N)c1cnccn1 | -7.3% | -20.6 | ? | 1.6 | -0.2 | -18.5
CC12CN3CC(C)(CN(C1)C31CCSCC1)C2=O | 1.3% | 2.5 | -2.6% | -3.9 | 15.5 | -0.3
Cc1ccc(S(=O)(=O)CC(=O)c2cc(C)c(OC(=O)N(C)C)c(C)c2)cc1 | -10.0% | 8.9 | -31.6%[inhibitor] | 1.9 | -2.1 | 0.0
OCC1OC(n2cnc3cc(Cl)c(Cl)cc32)C(O)C1O (centres undefined) | · | 10.4 | · | 4.2 | -9.4 | -4.1
O=C(CCN1CC1)OCCOC(=O)CCN1CC1 | 2.1% | -5.5 | 4.1%[15.4 µM] | -1.6 | -10.9 | 7.2
CC(=O)C1(c2ccccc2)CCNCC1 | 2.0% | 1.6 | ? | 0.8 | -5.0 | 1.4
Cc1cccnc1-n1c(CN2C(=O)c3ccccc3C2=O)nc2ccccc2c1=O | 4.3% | 0.5 | -3.3% | 0.0 | -10.8 | 1.4
O=c1[nH]c(=S)n(-c2ccccc2F)c(O)c1C=NCc1ccco1 | -3.7% | 9.9 | 1.5% | -4.5 | -6.0 | -4.5
COC(=O)c1ccc(COC(=O)c2ccccn2)cc1 | 8.8% | -0.5 | 15.9% | -3.4 | 5.5 | -0.4
CN1CCN(C(=O)Cc2ccccc2)CC1 | 10.3% | 12.9 | -3.2%[15.4 µM] | 0.7 | -4.0 | 2.3
CCCNC(=O)N1[C@H]2CC[C@@H]1C(C(=O)OC)=C(c1ccc(Cl)c(C(F)(F)F)c1)C2 | 1.3% | 5.1 | 23.9% | -0.5 | -9.9 | -23.2
CN1C(=O)N(C)C(=O)C2(Cc3cc([N+](=O)[O-])ccc3N3CCN(C(=O)c4ccccc4)CC32)C1=O (centres undefined) | -19.3% | 9.0 | 12.7%[15.4 µM] | -2.6 | -5.3 | 0.0

Random excerpt: three compounds from above
SMILES | gsp antag | Six1-Eya2 inh | gsp ag | D2 agonist | D2 potentiator | CtBP-E1A blk
C/C=C1/C[C@@H](C)[C@](O)(CO)C(=O)OCC2=CCN3CC[C@@H](OC1=O)[C@@H]23 | 7.7% | -2.9 | · | 1.5 | -4.7 | 5.4
CC1(C)CN=C(NCc2ccccc2Cl)S1 | 9.7% | -2.3 | -50.2%[inhibitor] | -1.4 | -13.0 | -13.4
O=C(CCN1CC1)OCCOC(=O)CCN1CC1 | 2.1% | -5.5 | 4.1%[15.4 µM] | -1.6 | -10.9 | 7.2

The list goes on:
SMILES | gsp antag | Six1-Eya2 inh | gsp ag | D2 agonist | D2 potentiator | CtBP-E1A blk
CCOc1ccccc1N1C(=O)NC(=O)/C(=C/c2ccc3c4c(cccc24)CC3)C1=O | -14.2% | 20.1 | ? | · | -6.4 | 5.0
CC(Cc1ccccc1)NC(=O)C(c1ccc(N)cc1)c1ccc(N)cc1 (centres undefined) | 7.8% | -1.3 | 19.4% | -5.1 | -7.8 | 4.1
ClCCNc1nc2ccc(Cl)cc2[nH]1 | 1.2% | 7.6 | -6.8% | -1.0 | -6.5 | -10.1
Cc1cnc[nH]1 | 2.7% | 3.9 | · | -1.4 | -6.7 | -12.2
CC(=O)c1c(O)n(-c2cccc(Cl)c2)c(=O)[nH]c1=O (tested in a mixture with another compound) | 4.5% | -2.8 | -0.7%[15.4 µM] | 0.4 | -1.4 | -21.8
O=C(COc1ccc(Cl)cc1Cl)N1CCN(C/C=C/c2ccccc2)CC1 | -2.3% | -8.8 | 0.3% | -1.3 | -19.0 | -24.7
COc1ccc(CC(C)NC2CCCCCC2)cc1 (centres undefined) | 5.7% | 4.3 | -23.5% | -3.9 | -9.8 | 5.7
Cc1ccc(C2=NCC(=O)Nc3ccc(Br)cc32)cc1 | 3.8% | -9.6 | -10.2%[15.4 µM] | 5.8 | -3.8 | 2.8
Fc1ccc(C[n+]2c(-c3ccccc3)cc(-c3ccccc3)cc2-c2ccccc2)cc1 | -13.8% | -3.3 | · | -1.2 | -68.7 | -12.7
CCCCn1c(O)c(C(C)=NCCN2CCCCC2)c(=O)[nH]c1=O | 0.6% | -1.4 | 0.0% | -2.2 | -17.0 | -3.8
Cc1nc2ccccc2c(=O)n1/N=C/c1cc(Br)cc(Br)c1O | ? | -65.8* | -0.7% | -8.5 | -21.1 | -78.4*
COc1cccc(CN2CCCC(C(=O)c3ccccc3SC)C2)c1O (centres undefined) | -8.6% | -0.8 | 17.0% | -0.3 | -20.4 | -12.1
CCC(=O)c1cc(F)c(N2CCN(CC)CC2)cc1C | 0.5% | -0.2 | 15.4% | -2.4 | -16.9 | -1.5
FC(F)(F)C1=NC(C(F)(F)F)=NP(N2CCOCC2)(N2CCOCC2)=N1 | 9.9% | 1.7 | -0.3% | -3.7 | -9.5 | 2.2
Cc1ccc(C(C)C)c(OCC#CCN2CCCC2)c1 | 5.2% | -23.5 | -9.7% | 3.5 | 61.5* | ·
CCOc1ccc(CN2CCN(C(=O)Cc3ccccc3)CC2)cc1 | -3.3% | -3.0 | 3.8% | -7.3 | -21.2 | 10.1
CSc1ncc(Cl)c(C(=O)O)n1 (tested in a mixture with another compound) | -3.0% | 6.8 | -3.0% | -0.1 | 3.1 | 1.2
C[C@]12CC[C@H](O)CC1=C([N+](=O)[O-])CC1C2CC[C@@]2(C)C1CC[C@@H]2O (some centres undefined) | 0.0% | 1.4 | -1.1%[15.4 µM] | 1.4 | -6.0 | 6.1
Cc1cccc(N2C(=O)NC(=O)/C(=C/c3ccc(N4CCOCC4)cc3)C2=O)c1 | -7.3% | -5.1 | -2.4%[15.4 µM] | -3.5 | -3.0 | -13.6
c1ccc2c(CN3CCCCCC3)c[nH]c2c1 | -1.5% | 4.7 | ? | -3.5 | -6.8 | 0.1
C/C(=N\Nc1ccccc1)c1c(O)n(-c2ccccc2)c(=O)[nH]c1=O | 0.9% | 6.1 | -9.9%[15.4 µM] | -2.2 | 2.7 | 0.4
O=[N+]([O-])c1ccc(Cl)c(Cl)c1Cl | -0.3% | 3.9 | · | -3.5 | -5.0 | 7.9
CN(C)CC(C(=O)Cc1ccccc1)c1ccccc1 (centres undefined) | 24.4% | 4.7 | 17.9% | -8.3 | -24.0 | -20.5
COc1ccc(-c2nn(CCC#N)cc2C(=O)NCc2ccccc2)cc1 | 16.5% | -0.8 | 10.8% | -2.6 | -7.6 | 9.2
CCOC(=O)C1(c2ccccc2)CCN(CCC(=O)Nc2ccc(OC)cc2)CC1 | · | 0.0 | ? | 0.6 | -38.1 | -5.3
Following part:
SMILES | gsp antag | Six1-Eya2 inh | gsp ag | D2 agonist | D2 potentiator | CtBP-E1A blk
C=CC12CN(C)[C@@H]3C4CO[C@H](C[C@H]41)[C@]1(C(=O)Nc4ccccc41)[C@@H]32 (some centres undefined) | 7.3% | 8.4 | · | -2.3 | -2.6 | 5.0
O=C(CSC1c2ccccc2-c2ccccc21)N/N=C/c1ccccc1O | -24.8% | -26.6 | -14.9% | -1.2 | -7.7 | -27.9
O=c1[nH]c(=S)n(C2CC2)c(O)c1/C=N/Nc1cccc2ccccc12 | -7.0% | -27.0 | 5.1% | 3.6 | · | -19.5
CCOC(=O)C1(CCOc2ccccc2)CCN(Cc2ccc(C)s2)CC1 | 1.2% | -3.1 | 24.0% | -2.6 | -31.7 | 5.3
NS(=O)(=O)c1ccc(-c2ccc(C=C3C(=O)NC(=O)NC3=O)o2)cc1 | -0.3% | 8.9 | ? | -0.9 | -8.5 | -22.3
CC(C)Cc1nnc(NC(=O)CCC(=O)N2CCN(CCOC(c3ccccc3)c3ccccc3)CC2)s1 | 0.4% | -10.0 | -17.8% | -1.4 | -34.1 | -2.2
CCCC(C)C1C(C#N)=C(N)Oc2c1c(=O)oc1ccccc21 (centres undefined) | ? | -0.8 | 2.4% | 1.5 | 0.3 | -1.0
CC(C)C[C@H]1C(=O)N2CCC[C@H]2[C@]2(O)O[C@](NC(=O)[C@@H]3C=C4c5cccc6[nH]cc(c56)C[C@H]4N(C)C3)(C(C)C)C(=O)N12 | -4.0% | -2.0 | · | 106.3* | ? | ?
CCC(=NCCCN(C)C)c1c(O)n(-c2ccc(OC)cc2)c(=O)[nH]c1=O | -6.5% | -2.6 | -12.7% | -3.0 | -10.9 | 7.0
C[N+](C)(C)c1ccccc1 | 5.2% | -5.5 | · | 3.1 | -5.2 | 5.9
